High-throughput results: PubChem, National Center for Advancing Translational Sciences (NCATS)
ClpP mod = qHTS Assay for Activators of ClpP | 340,000 compounds, 1.9% hits | Potency, µM (top dose mostly 57.5 µM), without a hit: at the highest dose activity change, negative = active | AID 651965, 2013 | ATP-dependent Clp protease proteolytic subunit (Bacillus subtilis (strain 168)), P80244 | purified B. subtilis ClpP, FRET peptide cleavage, 20 min; active = well fitted falling curve with a large enough effect; inconclusive = small, poorly fitted or top-dose-only effect; inactive = no such curve, though single readings can be large or run the other way; further: potency means the concentration at half of the fitted maximal effect; the source files actives as falling curves though it sought activators and does not explain the sign; nearly all actives have a fitted effect of over 65% in size; many hits overshoot -100%
Target sequence (P80244 whole entry, looked up): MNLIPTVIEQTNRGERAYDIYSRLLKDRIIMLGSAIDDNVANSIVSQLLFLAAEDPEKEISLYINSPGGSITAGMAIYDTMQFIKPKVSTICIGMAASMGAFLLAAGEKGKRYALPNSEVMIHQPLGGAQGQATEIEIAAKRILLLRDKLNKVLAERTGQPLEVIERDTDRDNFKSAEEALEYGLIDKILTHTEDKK
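Buffer: 100 mM Tris/HCl pH8, 100 mM KCl, 0.05% low protease BSA, 2.5% glycerol, 0.01% Tween-20. ClpP 10 microg/mL final; 20 min RT; delta FRET normalized to ADEP and DMSO controls.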
TRPV1 PAM = enhances activation of the human vanilloid receptor TRPV1. Q8NER1. TRPV1-expressing cells, Fluo-8 calcium influx, capsaicin EC20 potentiation; host cell line not named in the record; control for the full effect not named in the record. potentiation, % at 8.33 µM. 320,000 compounds, 0.02% hits. AID 540277; active means potentiation above 80%; inconclusive means 30% to 80%; inactive means below 30%; further: 0% is about no effect
Target sequence (Q8NER1 whole entry, looked up): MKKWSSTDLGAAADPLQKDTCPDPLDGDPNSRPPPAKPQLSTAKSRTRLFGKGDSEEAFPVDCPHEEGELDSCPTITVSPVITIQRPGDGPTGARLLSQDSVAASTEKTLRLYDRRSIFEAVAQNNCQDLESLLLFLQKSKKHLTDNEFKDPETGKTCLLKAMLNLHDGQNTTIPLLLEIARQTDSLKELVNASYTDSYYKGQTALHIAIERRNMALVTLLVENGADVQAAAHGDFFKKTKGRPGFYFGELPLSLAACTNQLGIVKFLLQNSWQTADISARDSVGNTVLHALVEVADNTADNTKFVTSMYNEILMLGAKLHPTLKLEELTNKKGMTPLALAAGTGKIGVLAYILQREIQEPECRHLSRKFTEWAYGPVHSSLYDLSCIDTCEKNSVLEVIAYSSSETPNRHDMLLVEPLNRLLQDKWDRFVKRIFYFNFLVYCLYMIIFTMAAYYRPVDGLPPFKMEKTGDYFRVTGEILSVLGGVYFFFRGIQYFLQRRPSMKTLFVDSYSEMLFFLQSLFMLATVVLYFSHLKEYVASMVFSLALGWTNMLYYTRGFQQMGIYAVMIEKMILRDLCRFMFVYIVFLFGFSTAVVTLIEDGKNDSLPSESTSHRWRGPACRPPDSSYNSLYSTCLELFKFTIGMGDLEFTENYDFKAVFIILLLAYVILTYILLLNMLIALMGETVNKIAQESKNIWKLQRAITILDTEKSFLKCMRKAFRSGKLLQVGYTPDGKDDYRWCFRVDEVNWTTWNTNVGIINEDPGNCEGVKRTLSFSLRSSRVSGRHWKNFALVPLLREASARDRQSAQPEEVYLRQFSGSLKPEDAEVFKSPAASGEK
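Cells expressing TRPV1 were dye-loaded with Fluo-8 and read kinetically: 10 s baseline, 3 min after compound (agonist portion), then 2 min after EC20 capsaicin (allosteric enhancer portion). Calcium-bound dye fluorescence at 480/520 nm.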
gsp antag = antagonists of gsp mutant (McCune-Albright syndrome); gsp-mutant cells, cAMP HTRF, 30 min; control for the full effect not named in the record; 340,000 compounds, 0.4% hits; Potency, µM (top dose mostly 76.9 µM), without a hit: at the top dose activity change, negative = inhibition, hits mostly inhibitors; active = falling curve of any shape with a large fitted effect; inconclusive = falling curve, mostly with a smaller effect; inactive = flat or rising curve; cell line not stated here;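 further: intracellular cAMP measured with PDE inhibitor Ro 20-1724 present during compound exposure; potency means the concentration at half of the fitted maximal effect; on the % scale 0 is the no-effect control and ±100 the full control effect; nearly all actives have a fitted effect of over 65% in size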
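G418-selected cells were plated in DMEM/10% FBS for 16-24 h at 37C, then treated with compounds plus the PDE inhibitor […] (300 uM solution added) for 30 min at 37C. Intracellular cAMP was measured by HTRF after 30 min lysis at room temperature.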
Sfp inh = Sfp phosphopantetheinyl transferase inhibition | Q9F4F7 | Biochemical Sfp PPTase activity, qHTS | Potency, µM, for inactives: max response, negative = inhibition, usual class: inhibitors | 310,000 compounds, 3.5% hits | AID 1490; active means well fitted inhibition curve with a large enough effect; inconclusive means small, poorly fitted or top-dose-only effect, or another doubt; inactive means no such curve, though single readings can be large or run the other way;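 further: the enzyme is Sfp with the accession as filed and its product quenches rhodamine fluorescence; potency means the concentration at half of the fitted maximal effect; 0% = enzyme reaction without inhibitor and -100% = no enzyme wells; top concentration of the series not given in the record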
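Fluorescence-quenching assay with 15 nM Sfp, 5 uM rhodamine-CoA and 12.5 uM BHQ-2-labelled ybbR peptide in pH 7.6 Hepes/MgCl2 buffer. Enzyme was pre-incubated with compound for 15 min at room temperature. Rate was taken from the 30-min fluorescence change (525/598 nm).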
gsp ag = agonists of gsp mutant (McCune-Albright syndrome); gsp mutant cells, cAMP HTRF, 30 min; control for the full effect not named in the record; AID 624287; Potency, µM (series often up to 76.9 µM), without a hit: at the highest dose activation (cAMP increase), hits mostly activators; 340,000 compounds, 0.13% hits; active = well fitted activation curve with a large enough effect; inconclusive = small, poorly fitted or top-dose-only effect, or another doubt; inactive = no such curve, though single readings can be large or run the other way; cell line not stated here;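 further: phosphodiesterase inhibitor Ro 20-1724 added with compounds to block cAMP breakdown; potency means the concentration at half of the fitted maximal effect; nearly all actives have a fitted effect of over 60% in size; about a fifth of the inactives were tested at one dose only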
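Cells in DMEM/10% FBS with G418 were pretreated with compounds in DMSO plus […] (300 uM stock) for 30 min at 37C. cAMP was measured by HTRF (cAMP-d2 plus anti-cAMP antibody-K) after 30 min at room temperature.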
Menin MLL FP FL = displaces fluorescein MLL peptide from human menin | 290,000 tested, under 10 active | Fluorescence polarization, fluorescein-MLL peptide displacement from menin | FP activity change, % at 61.4 µM; inconclusive = falling polarisation curve, or a change in total fluorescence; inactive = total fluorescence flat and polarisation flat or rising; no compound was filed as active; the % refers to the polarisation; negative = inhibition;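 further: % of control where 0% means no effect; inhibitors lower the polarisation; unlabelled MLL peptide was the positive control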
CtBP-E1A blk = blocks the CtBP interaction with E1A; AlphaScreen GST-E1A/His-CtBP binding, 1536-well; stronger effect = lower value; control for the full effect not named in the record; activity change, % (test concentration not listed); 340,000 compounds, 0.49% hits; AID 651724; in the data active means activity change below about -65%; inconclusive means about -30% to -65%; inactive means above about -30%; further: on the % scale 0 is the no-effect control and ±100 the full control effect
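In 5 uL wells, 23 nL compound meets equimolar GST-E1A and His-CtBP (5X stock 125 nM each) for 2 h, 37 °C. Beads (5X, 50 ug/mL) then 1 h, 37 °C, dark.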
Starred values were filed as active, the others as inactive; ? = inconclusive; . = not tested or not shown; [ ] = dose if it differs, or a comment.

SMILES	Menin MLL FP FL	ClpP mod	Sfp inh	CtBP-E1A blk	TRPV1 PAM	gsp ag	gsp antag
COC(=O)C1CCN(C(=O)c2ccccc2Oc2ccccc2)CC1	2.1	4.1%	6%	8	-15	1%	-7%
O=C(NC1CCCC1)C1CCCN1C(=O)Nc1ccccc1 (configuration not stated)	0.8	-1.2%	12%	1	15	5%	4%
CCC(C(=O)N1CCOCC1)n1c2ccccc2c2nc(=O)cc(C)n21 (configuration not stated)	.	3.6%	11%	3	29	-9%	-14%
COc1ccc(NC(=S)NN(C)C(=S)Nc2ccc(OC)cc2)cc1	-1.2	-5.0%	-1%	4	1	-17%	13%
COc1cc(C#N)ccc1OC(=O)Cc1cc(OC)c(OC)c(OC)c1	0.7	.	4%	4	-4	0%	6%
O=c1c2nnn(-c3ccc(Br)cc3)c2ncn1Cc1ccccn1	1.0	-0.5%	14%	13	-15	-2%[15.4 µM]	11%
C/C(CC(=O)NC1CCCCC1)=N\NC(=O)c1ccc(Br)cc1	-3.0	.	?	-5	-14	2%[15.4 µM]	-13%
Cc1ccc(NC(=O)c2ccccc2N2C(=O)C3C4C=CC(C5CC45)C3C2=O)cc1C (configuration not stated)	1.1	0.7%	6%	2	0	-42%[inhibitor]	?
CSc1ccc(CCNC(=O)C2CCN(c3nnc(-n4cccc4)s3)CC2)cc1	-0.3	-1.8%	19%	-7	0	-3%	-1%
COc1ccccc1S(=O)(=O)N(C)C[C@H]1OCc2cnnn2CCCC(=O)N([C@@H](C)CO)C[C@@H]1C	.	0.2%	.	3	.	-46%[inhibitor]	.
COc1ccc(NC(=O)C2CC2)cc1-n1cnnn1	4.3	-3.4%	8%	-3	8	20%	-2%
CCNC(=O)COc1ccc(/C=N/NC(=O)c2cccnc2)cc1OC	-3.9	.	17%	-3	9	?	4%
CNC(=O)NC(=O)COC(=O)CCc1nc(=O)c2ccccc2n1C	-1.6	.	18%	3	2	?	5%
Cc1n(Cc2ccccc2)c2ccccc2[n+]1Cc1ccccc1	1.6	-0.7%	-8%	0	-1	-10%[15.4 µM]	13%
Cc1ccc(NC(=O)C2C3CCC(O3)C2C(=O)O)cc1Cl (configuration not stated)	-1.9	0.1%	-15%	.	10	-9%	3%
COc1ccc(-c2c(-c3cc(OC)cc(OC)c3)n(C)c3ccc(-c4ccc(OC)nc4)cc23)cc1	.	4.5%	.	-14	6	15%	4%
O=C(N/N=C/c1cccnc1)c1ccc(CN2c3cccc4cccc(c34)S2(=O)=O)cc1	2.2	.	15%	1	-11	?	-21%
O=C1CN(C(=O)c2cccc(S(=O)(=O)N3CCCC3)c2)c2ccccc2N1	2.2	-1.6%	17%	.	2	10%	-6%
Cc1ccc(Cc2c(-c3ccc(Cl)cc3)nc3cc(C)ccn23)cc1	.	4.5%	.	-3	.	-43%[inhibitor]	.
CC(C)(C)OC(=O)NCC1CCN(S(=O)(=O)Cc2ccccc2)CC1	-2.5	0.1%	13%	4	-8	1%	4%
Cc1ccc(OCc2n[nH]c(=S)n2-c2ccccc2)cc1	2.5	0.7%	5%	5	-8	-61%[inhibitor]	-21%
CC(C)C[C@H](NC(=O)C1CC(=O)N(c2ccc3c(c2)OCO3)C1)C(=O)NCc1ccco1 (some centres not stated)	.	1.6%	-1%	.	7	8%	2%
COc1ccc(CCN2C(=O)CC(NCCc3ccc(S(N)(=O)=O)cc3)C2=O)cc1OC (configuration not stated)	-0.4	0.8%	-21%	1	18	?	7%
O=C(Cn1c(=O)n(-c2ccccc2)c(=O)c2sccc21)NCc1ccccc1	-2.1	-2.0%	9%	.	5	-11%	4%
CC12CCC(=O)N1C(C(=O)Nc1cccc(S(=O)(=O)N3CCCCC3)c1)CS2 (configuration not stated)	.	0.7%	.	3	-15	3%[15.4 µM]	6%
COc1ccc(C(=O)NNC(=O)CCCCC(=O)NNC(=O)c2ccc(OC)cc2)cc1	-0.3	0.9%	-9%	.	-7	15%	8%
COC(=O)C1=C(C(=O)OC)C2(OC1c1cccc(F)c1)C(=O)c1ccccc1C2=O (configuration not stated)	0.6	-1.4%	79µM*	-8	9	-32%[inhibitor]	-10%
N#CCC(=O)N/N=C/c1ccc(OCc2ccccc2)cc1	4.1	.	8%	-6	-5	-33%[inhibitor]	11%
COC(=O)c1c(O)c2ccccc2[nH]c1=O	0.7	-7.0%	-6%	-1	0	15%	9%
CC(C)Sc1nnc(-c2c[nH]c3ccccc23)n1C	0.2	-0.9%	12%	2	5	-19%	-3%
COn1c(-n2nc(C)cc2C)nc2ccccc2c1=O	-0.3	0.8%	-17%	2	-2	9%	10%
C=CCN1CC(c2nc3ccccc3n2CCOc2ccccc2)CC1=O (configuration not stated)	3.5	1.0%	?	-5	-7	?	20%
Cc1cc(C)cc(NC(=O)CSc2nc3nc(C)cc(C)n3n2)c1	.	-2.0%	.	-5	11	16%	8%
CCOC(=O)c1cc(C)n(-n2cnnc2)c1C	1.2	0.4%	8%	-6	-5	-4%	10%
O=C(N/N=C/c1ccc(Br)s1)c1cccs1	-0.1	.	-5%	-12	3	22%	1%
C=CCN=C(C)C1=C(O)C(C)OC1=O (configuration not stated)	2.8	-0.5%	8%	8	-11	?	7%
CCOc1ccccc1N1CC(C(=O)Nc2c(C)n(C)n(-c3ccccc3)c2=O)CC1=O (configuration not stated)	1.4	.	?	5	-11	?	8%
Cn1c(CCNC(=O)c2ccco2)nc2cc(NS(=O)(=O)c3ccccc3)ccc21	0.6	0.0%	10%	-9	7	-4%	-33%
O=[N+]([O-])c1cccc(NC(=S)NCc2ccncc2)c1	0.1	.	13µM*	5	-6	?	2%
CCOC(=O)c1c(C)[nH]c(C(=O)COC(=O)CSCC(=O)N(CC)CC)c1C	1.3	0.1%	10%	9	2	16%	-32%
Clc1ccc(-c2nc3c4ccccc4ccn3c2Cc2ccccc2)cc1	.	?	.	-9	.	?	.
OCCNCCCOc1cc(Cl)ccc1Cl	0.7	2.0%	-93%	-1	7	23%	9%
CC(=O)c1ccc(N2CCN(S(=O)(=O)c3cn(C)c(C)n3)CC2)cc1	.	-9.6%	18%	2	6	-14%[15.4 µM]	-1%
N=C1/C(=C\c2ccc(SCc3ccccc3)o2)C(=O)N=C2SC=NN12	16	1.5%	5%	.	10	2%	-10%
Nc1cc(C(=O)O)ccc1N1CCCCC1	4.9	-20%	29%	2	1	-19%	5%
CCOCCCNC(=S)NC1CC2CCC(C1)N2Cc1ccccc1 (configuration not stated)	1.3	.	-3%	4	2	-13%[15.4 µM]	12%
Cc1ccc2[nH]cc(CCNC(=O)c3ccc4c(c3)OCO4)c2c1	-0.4	1.5%	8%	-5	-13	-17%	-17%
CCN(CC)C(=O)C(C)OC(=O)c1ccc(O)cc1 (configuration not stated)	6.4	-0.8%	-15%	-4	-2	1%	-1%
C[C@H]1CN([C@@H](C)CO)C(=O)c2cc(-c3cccc(C(=O)N(C)C)c3)cnc2O[C@H]1CN(C)C(=O)Cc1ccccn1	.	-13%	.	6	.	-12%	.
Cc1cc(C)nc(NS(=O)(=O)c2ccc(Br)cc2)n1	7.9	-2.6%	-13%	7	-8	4%	5%
CCN(CC)CCOc1nnc(-c2ccc(C)cc2)c2ccccc12	10	-26%	7%	2	-5	-9%	1%
CC(SC(C)C(=O)NN=Cc1ccc(F)cc1)C(=O)NN=Cc1ccc(F)cc1 (configuration not stated)	.	.	.	6	.	19%	3%
Cc1cc(NC(=O)C2CCCN(S(=O)(=O)c3cnc[nH]3)C2)ccc1Br (configuration not stated)	-1.0	1.7%	-8%	4	10	-5%	-1%
COc1ccc(/C=N/Nc2nnc(C)n2N)cc1OC	0.5	29%	19%	0	-1	7%[15.4 µM]	0%
Cn1c(SCc2c(F)cccc2Cl)nnc1-c1cccs1	1.0	-3.5%	19%	-13	2	-10%	-11%
CCCNC(=O)Cn1c2ccccc2c2nc(=O)cc(C)n21	4.8	4.1%	2%	0	-11	-32%[inhibitor]	8%
O=C(Cc1cn2ccsc2n1)Nc1ccccn1	-3.9	-0.4%	4%	-2	-12	-21%	10%
COc1ccc(-c2[nH]ncc2CN2CCCN(c3ccccc3)CC2)c(F)c1	-4.1	-0.4%	2%	-21	-8	-22%	4%
CCOC(=O)COc1ccccc1/C=C\[N+](=O)[O-]	-1.9	1.6%	14µM*	3	3	-23%	-21%
O=C(O)c1cccc(NC2=C(N3CCOCC3)C(=O)c3ccccc3C2=O)c1	5.2	.	-8%	4	1	-21%[15.4 µM]	-13%

Further entries:
SMILES	Menin MLL FP FL	ClpP mod	Sfp inh	CtBP-E1A blk	TRPV1 PAM	gsp ag	gsp antag
COc1ccc(C2Nc3cccc4cccc(c34)N2)cc1Br	4.3	.	-16%	-1	-2	8%[15.4 µM]	4%
O=C(NCc1ccccc1F)C1CCCN1C(=O)Nc1ccc(Cl)cc1 (configuration not stated)	4.4	0.3%	-1%	.	-3	-1%	5%
O=C(O)c1cc(O)ccc1N=Nc1ccccc1	-0.5	2.7%	11%	.	-8	-33%[inhibitor]	-5%
NC(=O)CSc1nc2cc(Cl)ccc2c(=O)n1C1CCCCC1	-0.4	.	6%	-1	11	-30%[inhibitor]	0%
CCOC(=O)C1CCN(c2c(C(=O)c3ccccc3)cnc3ccc(Cl)cc23)CC1	2.8	-0.5%	7%	2	6	-39%[inhibitor]	?
Cc1ccc(CN2CCCN(Cc3cc(C)ccc3C)S2(=O)=O)cc1	-5.9	1.5%	5%	20	5	-5%	6%
O=Cc1cn(-c2ccccc2)nc1-c1ccc(F)cc1	-0.4	1.3%	0%	.	-2	0%	6%
C=CCn1c(N)nc2ccccc21	-1.2	-2.1%	9%	-4	6	-40%[inhibitor]	3%
O=c1oc(-c2cccs2)nc2scc(-c3cccs3)c12	0.8	-6.7%	-2%	-7	2	?	-13%
Cc1ccc(-n2c(O)c(C=Nc3ccccc3-c3n[nH]c(=S)[nH]c3=O)c3ccccc3c2=O)cc1C	1.6	.	-4%	-13	-19	-32%[inhibitor]	-43%
